FGF22 binding: FGF22 (human) thermal shift binding | Q9HCT0 | recombinant FGF22 thermal shift, SYPRO orange fluorescence; percent of sucrose octasulfate shift, DMSO zero | calls only at 9.99 µM | 340,000 tested, 1.5% active | AID 651658;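 active means melting point raised past a set limit in the mean and every replicate; inconclusive means no clear call; three in four hits are not shown here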
Target sequence (Q9HCT0 whole entry, looked up): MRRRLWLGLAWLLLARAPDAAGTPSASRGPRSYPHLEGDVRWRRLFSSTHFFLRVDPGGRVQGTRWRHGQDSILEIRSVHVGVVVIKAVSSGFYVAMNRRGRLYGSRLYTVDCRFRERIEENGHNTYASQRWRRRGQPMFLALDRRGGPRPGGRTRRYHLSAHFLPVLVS
Ecoli growth: blocks Escherichia coli growth | OD600, 23 h; stronger effect = lower value | OD600 absorbance (test concentration not listed) | 330,000 tested, 0.21% active;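 active means OD600 absorbance below the run mean of sample wells minus 3.6 SD, in any replicate, cut at about 0.56 in these data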;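 further: stock transfer was 300 nL into about 60 µL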
Vif TR-FRET: HIV-1 Vif–A3G interaction blockers – biochemical, TR-FRET, GST-Vif 1-94, biotin-A3G peptide, dose response retest, primary screen (AID 1117319). TR-FRET GST-Vif / biotin-A3G peptide binding; higher % means a stronger effect; test concentration not given here; strong numbers were not always called active. one-dose inhibition, %; IC50 in µM for titrated hits. 260,000 tested, 0.57% active;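 active means above the screen mean plus three standard deviations and confirmed in dose response; inconclusive means results disagree or hit not tested in dose response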;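 further: Vif residues 1-94 fused to GST binding biotinylated APOBEC3G peptide 110-148; 0% = full assay without inhibitor and 100% = GST in place of GST-Vif; retest series ran down from 100 µM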
MLL AF4-AF9 inh: MLL-AF4/AF9 protein interaction inhibition | AlphaScreen, biotin-AF4 peptide binding to FLAG-AF9 | inhibition, % at 10 µM | 350,000 tested, 0.47% active;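 active means every replicate reaching a set inhibition limit, whatever the replicate mean, cut at about 25% in these data; inconclusive means mean inhibition reaches that limit but some replicates miss it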;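 further: 0% = plate neutral control median and 100% = total signal loss; the record names both 10 and 1 µM as test concentration; the first replicate is given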
HNF4A DNA FP: change in binding of human HNF4 alpha to DNA. P41235. HNF4a-FITC DNA binding, fluorescence polarization, 1 h. activity change, % at 10 µM. 360,000 tested, 0.3% active. AID 1224865; in the data active means activity change above about 30%, passing the limit was not always enough;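 further: controls were the assay level and a saturating level of protein; the project sought stronger binding though the title names inhibitors; some compounds called inactive have numbers as strong as hits; positive values seem to mean higher polarization but the record does not say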
Target sequence (P41235 whole entry, looked up): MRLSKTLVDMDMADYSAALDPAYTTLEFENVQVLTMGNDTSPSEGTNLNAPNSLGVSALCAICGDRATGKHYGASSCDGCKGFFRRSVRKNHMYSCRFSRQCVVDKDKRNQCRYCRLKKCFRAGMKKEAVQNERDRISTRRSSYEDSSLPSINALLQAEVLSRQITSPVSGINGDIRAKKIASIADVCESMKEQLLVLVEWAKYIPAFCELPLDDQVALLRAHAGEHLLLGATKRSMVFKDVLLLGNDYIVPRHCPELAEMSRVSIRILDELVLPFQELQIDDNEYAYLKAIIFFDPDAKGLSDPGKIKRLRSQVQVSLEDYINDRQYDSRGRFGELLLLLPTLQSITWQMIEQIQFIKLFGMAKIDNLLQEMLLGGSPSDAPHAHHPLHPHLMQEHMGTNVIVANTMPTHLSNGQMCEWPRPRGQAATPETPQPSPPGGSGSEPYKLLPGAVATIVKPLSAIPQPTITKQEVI
rRNA inh HTS: selective bacterial rRNA inhibition in E. coli; E. coli WT GFP vs humanized-ribosome RFP mutants, fluorescence, 24 h; stronger effect = lower value; DMSO median 0, no signal -100; GFP signal change (wild-type ribosome), % (no concentration beside the values); 350,000 tested, 1.6% active; AID 720706;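 active means significant combined selectivity score with lowered wild-type GFP, culture density cut under 30%, mutant RFP and density less affected; inactive means any of these conditions unmet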; further: one replicate is shown; some compounds called inactive have numbers as strong as hits
ALR inh: human ALR oxidase inhibition via reduced H2O2. inhibition, % (no concentration beside the values). purified ALR, DTT oxidation, H2O2 HRP-luminol luminescence. 290,000 tested, 3.8% active. AID 485317. P55789;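 active means mean and each replicate at 75% or more; inconclusive means only one of the two met; inactive means neither met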;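 further: stock transfer was 7.5 nL into about 7.5 µL; 0% = neutral wells and 100% = wells with inactivated enzyme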
Target sequence (P55789 whole entry, looked up): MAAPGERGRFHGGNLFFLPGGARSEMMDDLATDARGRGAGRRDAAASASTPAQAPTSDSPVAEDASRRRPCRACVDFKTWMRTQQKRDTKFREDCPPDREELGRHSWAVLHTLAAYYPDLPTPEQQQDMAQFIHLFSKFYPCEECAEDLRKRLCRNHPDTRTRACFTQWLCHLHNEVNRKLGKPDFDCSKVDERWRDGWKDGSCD
rRNA inh HTS OD600: recorded beside rRNA inh HTS, whose call it bears; OD600 change, %; measured here: OD600 growth;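 optical density of the mix in the first replicate; 0 = DMSO median and -100 = no signal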
rRNA inh HTS RFP: second read-out of rRNA inh HTS, no call of its own (marks repeat the call); RFP signal change, %; measured here: RFP humanized mutant strains;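 first replicate; 0 = DMSO median and -100 = no signal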
Numbers without * were called inactive; i = inactive; ? = inconclusive; / = no result given; & = joins results of further samples. Not all compounds are listed; the hit share may differ from the screen's.

SMILES	FGF22 binding	Ecoli growth	Vif TR-FRET	MLL AF4-AF9 inh	HNF4A DNA FP	rRNA inh HTS	rRNA inh HTS OD600	rRNA inh HTS RFP	ALR inh
CCN(CC(=O)Nc1ccccc1C(F)(F)F)C(=O)CCS(=O)(=O)c1ccc(Cl)cc1	i	0.7	32%	0.4	-0.3	4	15	0.2	-1
COc1ccc(CCNC(=O)c2ccc3c(c2)N(Cc2ccccc2)CCS3)cc1OC	i	0.71	/	-0.3	2.9	-12	-8	-0.6	-2
CCOC(=O)CSc1nc2c(cnn2-c2ccc(F)cc2)c(=O)[nH]1	i	0.7	-3%	-0.4	-0.6	8	-4	0.4	-2
COc1ccc(CNC(=O)CCSCc2ccccc2Cl)c(OC)c1	i	0.68	-9%	-1.2	0.6	-35	-34	-2.7	-19
CCCN(CC(=O)Nc1ccccc1OC)CC(=O)c1c(N)n(Cc2ccccc2)c(=O)n(C)c1=O	i	0.67	/	0.0	2.5	22	11	1.0	/
COc1ccc(CN(C)C[C@@H]2Oc3ccc(NC(=O)C4CCCCC4)cc3CC(=O)N([C@@H](C)CO)C[C@@H]2C)cc1	i	/	/	-2.2	/	-6	-13	1.2	/
O=C1CC(c2ccccc2F)C2=C(COC2=O)N1 (centres undefined)	i	0.69	/	-1.2	6.6	11	9	1.5	-3
COc1cc(O)oc1C=Nc1ccc(C(=O)O)cc1	/	0.68	12%	/	-2.5	/	/	/	-25
C/C=C/c1ccc([C@@H]2[C@H](CO)N3CCCCN(S(=O)(=O)c4ccc(F)cc4)C[C@@H]23)cc1	i	/	/	7.0	/	-56	-72	-13	/
C[n+]1c2n(c3ccccc31)N=C(c1ccccc1)CS2	i	0.66&0.67	-9%&23%	-1.7	0.4&2.4	5	12	-1.7	89*
CNC(=O)COC(=O)c1c2c(nc3ccccc13)CCC2	i	0.7	-5%	6.8	-6.3	15	1	2.5	-10
O=c1oc2cc(O[C@@H]3OC[C@@H](O)[C@H](O)[C@H]3O)ccc2c2ccccc12	i	0.7	-1%	1.1	0.5	0	-1	0.5	/
Cc1nnc(Cl)c2nn(-c3ccccc3)c(C)c12	i	0.7	12%	6.1	1.5	19	5	-5.7	-3
CCOc1nc2cnccc2n(CC(=O)Nc2cccc(C)c2)c1=O	i	0.68	/	-0.5	-0.6	-3	-19	-4.0	4
CO[C@H]1CN(C)C(=O)c2cc(NC(=O)Nc3cccc(Cl)c3)ccc2OC[C@@H](C)NC[C@@H]1C	i	/	/	-0.8	/	-4&-2	-7&-4	4.2&4.5	/
O=c1cc(CO)oc(C(Nc2ccccn2)c2ccccc2F)c1O (centres undefined)	i	0.71	/	5.4	-3.1	2	-4	-0.1	97*
Cc1cccc(NC(=S)N(CCN2CCOCC2)Cc2cc3cc4c(cc3[nH]c2=O)OCCO4)c1	i	0.67	1%	16	4.1	6	9	-7.6	4
Cc1ccc(NC(=O)CSCc2n[nH]c(=O)[nH]2)c(Br)c1	i	0.66	/	-1.0	0.0	-15	-8	-6.7	-4
C[C@H]1CN([C@@H](C)CO)C(=O)c2cc(C#CC3CC3)cnc2O[C@@H]1CN(C)C(=O)c1ccccc1	i	/	/	4.1	/	-1	8	-2.7	/
O=[N+]([O-])c1cc2c(cc1/C=N/NS(=O)(=O)c1ccc(Br)cc1)OCO2	i	/	23%	-0.7	-5.1	7	6	-0.9	32
CCc1ccc(-c2csc(NC(=O)c3cccnc3)n2)cc1	/	0.71	-9%	/	-0.1	/	/	/	-6
Cc1cccc(N(C)S(=O)(=O)c2csc(C(N)=O)c2)c1	i	0.67	2%	-1.3	-0.9	-3	-2	-0.5	-1
Cc1[nH]c2ccc(-c3n[nH]c(=S)n3-c3ccc(Br)cc3)cc2c1C	i	0.77	6%	-5.4	-0.7	-20	-17	6.2	61
COc1ccccc1C(=O)COC(=O)COc1cccc2c1OC(C)(C)C2	i	0.72	/	-0.6	1.1	12	4	1.2	2
Cc1ccc2ncnc(Nc3ccccc3)c2c1	i	0.71	-6%	-0.1	-4.6	12	7	1.9	/
COc1ccc(CCNC(=O)CSc2nnnn2-c2ccc(OC)c(OC)c2)cc1OC	/	0.69	-16%	-9.9	-2.9	-2	-5	0.9	46
C/C(Cc1ccccc1)=N\NC(=O)CNC(=O)c1cccc(F)c1	i	/	/	-0.1	1.6	6	13	-1.6	4
CCC(=O)N1CCC2(CC1)CN(Cc1ccc3c(c1)OCO3)[C@@H](CO)c1c2c2ccc(OC)cc2n1C	i	/	/	1.9	/	-4	-14	1.9	/
COc1ccc2c3c([nH]c2c1)[C@H](CO)N(Cc1nccs1)CC31CN(Cc2cccnc2)C1	i	/	/	4.7	/	-1	4	4.5	/
CCOC(=O)/C(N=O)=C(\O)C1CCN(C(=O)OCC)CC1	/	0.69	3%	/	-0.3	/	/	/	0
CCOc1ccc(NC(=O)c2ccc3c(c2)N(C)CCS3)cc1	i	/	-17%	-1.9	3.5	0	21	-2.4	/
CCCNC(=O)[C@@H]1[C@@H](CO)[C@@H]2Cn3c(cccc3=O)[C@H]1N2Cc1cccc(Cl)c1	i	/	/	-12	/	4	7	-0.3	/
Fc1ccc2nc(N3CCOCC3)sc2c1	/	0.71	-13%	-2.4	0.4	13	-4	-0.8	/
CC(C)CC1Nc2ccc(C(=O)NCCCN3CCCCC3C)cc2NC1=O (centres undefined)	i	0.72	-7%	-1.4	5.4	7	11	-0.4	-2
Cc1nc(SCC(=O)c2ccc(Cl)cc2)c([N+](=O)[O-])[nH]1	/	0.69	4%	/	3.9	/	/	/	99*
CNC[C@H]1OCCCC[C@@H](C)Oc2ccc(NS(=O)(=O)c3cccs3)cc2C(=O)N([C@@H](C)CO)C[C@H]1C	i	/	/	-6.2	/	5	1	0.6	/
CCN1CCN(C(=S)Nc2ccc([N+](=O)[O-])cc2)CC1	/	0.67	12%	/	-3.2	/	/	/	-23
CCOc1ccc(C(=O)N2CCc3cc(OC)c(OC)cc3C2)cc1OCC	/	0.68	0%	/	-2.9	/	/	/	-17
CC(=O)N1CCN(C(=O)c2cc3ccccc3o2)CC1	i	0.66	/	0.6	-0.1	6	5	-1.1	-9
CCOC(=O)c1c(NC(=O)CCCN2CCOCC2)sc2c1CC(C)(C)OC2	/	0.73	2%	/	-2.3	/	/	/	-2
COc1cc(/C=N/NC(=O)c2ccc3c(c2)OCCO3)cc(Br)c1O	i	/	2%	7.0	3.2	-1	-1	-0.5	/
Cc1c(-c2ccccc2)n(O)[n+]([O-])c1-c1ccccc1	i	/	-5%	0.6	0.6	-24	-41	-1.3	/
COC(=O)N/N=C(\C)c1ccc(OC(F)F)cc1	i	/	/	0.5	-0.6	15	15	2.0	-1
O=C(NCCc1ccccc1)C(=O)c1c(-c2ccccc2)cc2ccccn12	/	0.69	/	/	-2.0	/	/	/	-6
Cc1nc(SCC(=O)NCC(F)(F)F)c2c(-c3cccs3)csc2n1	/	0.68	/	-1.2	0.0	-3	4	-2.3	-4

Reprinted from the part before: four compounds; new compounds follow.
SMILES	FGF22 binding	Ecoli growth	Vif TR-FRET	MLL AF4-AF9 inh	HNF4A DNA FP	rRNA inh HTS	rRNA inh HTS OD600	rRNA inh HTS RFP	ALR inh
Cc1c(-c2ccccc2)n(O)[n+]([O-])c1-c1ccccc1	i	/	-5%	0.6	0.6	-24	-41	-1.3	/
COC(=O)N/N=C(\C)c1ccc(OC(F)F)cc1	i	/	/	0.5	-0.6	15	15	2.0	-1
O=C(NCCc1ccccc1)C(=O)c1c(-c2ccccc2)cc2ccccn12	/	0.69	/	/	-2.0	/	/	/	-6
Cc1nc(SCC(=O)NCC(F)(F)F)c2c(-c3cccs3)csc2n1	/	0.68	/	-1.2	0.0	-3	4	-2.3	-4
CCOCCCNC(=S)N1CCC(NC(=O)c2ccco2)CC1	i	0.7	-5%	-2.4	-0.1	-2	7	-3.0	-3
O=C(NCc1ccco1)C(=O)NCC1OCCCN1S(=O)(=O)c1ccc(Cl)cc1 (centres undefined)	i	0.73	-13%	-0.8	-0.7	11	2	-0.1	6
COc1ccccc1-c1ccc(Nc2cccc(C(F)(F)F)c2)nn1	/	0.73	2%	/	-3.6	/	/	/	-3
OCCC1CN(Cc2cnn(-c3ccc(F)cc3)c2)CCN1Cc1ccsc1 (centres undefined)	i	0.68	0%	-2.0	-9.1	19	14	3.4	-2
CC(=O)Nc1ccc2c(c1)C(N1CC3CCC(CC3)C1)c1ccccc1-2 (centres undefined)	i	0.71	2%	0.9	-0.3	-3	-8	0.3	/
CC(C)C#Cc1cnc2c(c1)C(=O)N([C@@H](C)CO)C[C@H](C)[C@@H](CN(C)Cc1ccccn1)O2	i	/	/	1.2	/	-1	2	0.5	/
COC(=O)N/N=C/c1ccc(-c2ccc(Cl)cc2Cl)o1	i	/	4%	-3.6	0.2	11	-6	-0.7	-1
O=C(O)C(Cc1ccccc1)N1C(=O)/C(=C/c2cccnc2)SC1=S (centres undefined)	i	0.71	/	-41	7.5	3	0	6.7	1
O=C(Nc1ccc(Cl)cc1N1CCOCC1)C1CC1	i	0.71	/	-1.7	0.9	-3	-1	-1.8	0
CCCC(NC(=O)c1ccc(Br)o1)c1nc2ccccc2[nH]1 (centres undefined)	i	0.68	/	-1.2	0.7	/	/	/	/
O=C(Nc1ccc2c(c1)OCO2)C1CCCCN1S(=O)(=O)c1ccccc1 (centres undefined)	/	0.81	1%	/	2.6	/	/	/	-5
CC1=N/C(=C/c2ccc([N+](=O)[O-])cc2)C(=O)N1c1ccc(Cl)cc1Cl	/	0.69	-2%	/	3.9	/	/	/	3
N#CC(CC(=O)OCc1ccccc1)NC(=O)OCc1ccccc1 (centres undefined)	i	/	1%	-1.8	-1.7	-1	-28	1.3	/
CC(CC(=O)OCC(=O)NCc1ccc(Cl)cc1)c1ccccc1 (centres undefined)	i	0.64	-5%	-3.4	1.6	-5	-7	-7.5	/
CCOC(=O)N1CCN(C(=O)c2ccc3c(SCC(=O)O)c4c(nc3c2)CCCC4)CC1	/	0.77	?	/	-1.4	/	/	/	4
CCN(CC)CCCN1CC(O)=C(c2nc3ccccc3s2)C1=N	/	0.71	6%	/	-0.7	/	/	/	/
O=C(CCC1CC(=O)Nc2ccccc21)NCc1ccccc1 (centres undefined)	i	0.73	6%	5.2	6.1	8	-1	-1.8	-1
COC(=O)c1cccc(NC(=O)c2ccco2)c1	/	0.74	-4%	/	0.2	/	/	/	-3
CO[C@H]1CN(C)C(=O)c2ccc(NC(=O)C3CC3)cc2OC[C@@H](C)N(Cc2cc(F)ccc2F)C[C@@H]1C	i	/	/	-2.0	/	-4	-14	2.9	/
CC(=O)c1c(C)[nH]c(C(=O)CN2CCN(S(=O)(=O)c3ccc(C(C)C)cc3)CC2)c1C	i	0.71	/	-1.9	-0.6	-11	-21	-2.0	/
COc1ccc(CN(C)C[C@@H]2OCCCC[C@@H](C)Oc3ccc(NS(=O)(=O)c4ccc(Cl)cc4)cc3C(=O)N([C@H](C)CO)C[C@@H]2C)cc1	i	/	/	0.3	/	4	-9	3.8	/
N=C(N)c1ccc(N)cc1	i	0.72	/	13	-0.7	/	/	/	3
O=C(NCCc1ccccc1)C1=COCCO1	i	0.65	/	-39	0.9	16	13	-2.7	-11
Cc1ccc(SCCC(=O)N(C)C)cc1	i	0.68	-4%	-20	-2.7	7	4	-2.3	1

High-throughput results deposited in PubChem by several laboratories.
